From PubChem BioAssay
AF4-AF9 inh = inhibitors of AF4 peptide binding to AF9, primary screen, biochemical, AlphaScreen, biotin-AF4 peptide, FLAG-AF9, single point; Protein AF-9 (Homo sapiens), P42568; inhibition, % at 10 µM; 350,000 compounds, 0.47% hits; AID 651704, 2012;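 active = every replicate reaching a set inhibition limit, whatever the replicate mean, cut at about 25% in these data; inconclusive = mean inhibition reaches that limit but some replicates miss it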;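 note: 0% = plate neutral control median and 100% = total signal loss; the record names both 10 and 1 µM as test concentration; the first replicate is given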
Vif TR-FRET = inhibitors of Vif binding to APOBEC3G peptide, primary screen, biochemical, TR-FRET, GST-Vif 1-94, biotin-A3G peptide, dose response retest (AID 1117319) | Virion infectivity factor (Human immunodeficiency virus type 1 group M subtype B (isolate … | inhibition, %, or IC50 in µM where a hit was titrated | TR-FRET GST-Vif / biotin-A3G peptide binding; higher % means a stronger effect; test concentration not given here; strong numbers were not always called active | 260,000 compounds, 0.57% hits;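 active = above the screen mean plus three standard deviations and confirmed in dose response; inconclusive = results disagree or hit not tested in dose response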;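 note: Vif residues 1-94 fused to GST binding biotinylated APOBEC3G peptide 110-148; 0% = full assay without inhibitor and 100% = GST in place of GST-Vif; retest series ran down from 100 µM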
Ecoli growth = E. coli growth inhibition, primary screen, OD600 | 330,000 compounds, 0.21% hits | AID 1053175, 2014 | Escherichia coli growth, 23 h; active compounds read low | OD600 absorbance (test concentration not listed);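 active = OD600 absorbance below the run mean of sample wells minus 3.6 SD, in any replicate, cut at about 0.56 in these data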;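 note: stock transfer was 300 nL into about 60 µL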
RanGTP-Impb inh = inhibitors of RanGTP-importin-beta interaction, primary screen, biochemical, FRET, CFP-Ran, YFP-importin-beta, homogeneous; 300,000 compounds, 1.1% hits; inhibition, % (concentration not given with the values); cell-free CFP-Ran/YFP-importin-beta FRET ratio; Ran GTPase (GTP-bound) - importin-beta complex; AID 2216, 2009;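 active = most replicates above 15%; inconclusive = exactly half above 15%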;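 note: 0% = DMSO wells and 100% = Ran loaded with GDP instead of GTP; wells of about 40 µL received 100 nL stock; the first replicate is given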
FGF22 binding = binders of human FGF22 protein, primary screen, FGF22 synaptogenesis inhibitor project, biophysical, thermal shift, single point. 340,000 compounds, 1.5% hits. Fibroblast growth factor 22 (Homo sapiens), Q9HCT0. recombinant FGF22 thermal shift, SYPRO orange fluorescence; percent of sucrose octasulfate shift, DMSO zero. calls only at 9.99 µM;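 active = melting point raised past a set limit in the mean and every replicate; inconclusive = no clear call; three in four hits are not shown here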
Target sequence (Q9HCT0 whole entry, looked up): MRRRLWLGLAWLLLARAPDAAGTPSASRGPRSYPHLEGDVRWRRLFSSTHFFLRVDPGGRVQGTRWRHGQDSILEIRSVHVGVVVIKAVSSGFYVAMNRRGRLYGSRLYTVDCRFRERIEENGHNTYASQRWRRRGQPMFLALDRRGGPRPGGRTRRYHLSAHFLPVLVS
UCH37 inh = inhibitors of human UCH37 deubiquitinase, primary screen, biochemical, Ub-AMC cleavage, fluorescence; Ubiquitin carboxyl-terminal hydrolase isozyme L5 (Homo sapiens), Q9Y5K5; 330,000 compounds, 0.33% hits; purified proteasome/UCH37; AID 588478, 2011; inhibition, % (test concentration not listed);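 active = mean of two replicates above 20%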;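 note: 0% = compound-free wells with enzyme and 100% = wells lacking proteasome; stock transfer was 100 nL into about 20 µL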
Target sequence (Q9Y5K5 whole entry, looked up): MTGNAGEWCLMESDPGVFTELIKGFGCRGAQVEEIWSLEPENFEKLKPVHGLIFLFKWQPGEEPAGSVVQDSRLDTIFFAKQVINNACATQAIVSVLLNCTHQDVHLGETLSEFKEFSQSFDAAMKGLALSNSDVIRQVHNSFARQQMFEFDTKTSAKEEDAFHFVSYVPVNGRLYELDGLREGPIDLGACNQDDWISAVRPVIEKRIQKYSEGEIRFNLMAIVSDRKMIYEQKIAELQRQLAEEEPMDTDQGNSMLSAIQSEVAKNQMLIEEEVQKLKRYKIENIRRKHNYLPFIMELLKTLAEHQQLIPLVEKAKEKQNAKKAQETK
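Signal – fluorescence, ex 355 nm, em 460 nm · System – Proteasome-bound UCH37 · Input – 0.15 nM proteasome as dispensed · Timing – 30 min preincubation with enzyme, 25 min cleavage at room temperature · Read-out basis – percent inhibition of cleavage signal versus uninhibited and no-proteasome wells · Medium – Tris-HCl pH 7.4 with ATP-MgCl2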
HNF4A DNA FP = change in binding of human HNF4A to DNA, primary screen, biochemical, fluorescence polarization, FITC-DNA. activity change, % at 10 µM. 360,000 compounds, 0.3% hits. 1 h; in the data active = activity change above about 30%, passing the limit was not always enough;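 note: controls were the assay level and a saturating level of protein; the project sought stronger binding though the title names inhibitors; some compounds called inactive have numbers as strong as hits; positive values seem to mean higher polarization but the record does not say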
Target sequence (P41235 whole entry, looked up): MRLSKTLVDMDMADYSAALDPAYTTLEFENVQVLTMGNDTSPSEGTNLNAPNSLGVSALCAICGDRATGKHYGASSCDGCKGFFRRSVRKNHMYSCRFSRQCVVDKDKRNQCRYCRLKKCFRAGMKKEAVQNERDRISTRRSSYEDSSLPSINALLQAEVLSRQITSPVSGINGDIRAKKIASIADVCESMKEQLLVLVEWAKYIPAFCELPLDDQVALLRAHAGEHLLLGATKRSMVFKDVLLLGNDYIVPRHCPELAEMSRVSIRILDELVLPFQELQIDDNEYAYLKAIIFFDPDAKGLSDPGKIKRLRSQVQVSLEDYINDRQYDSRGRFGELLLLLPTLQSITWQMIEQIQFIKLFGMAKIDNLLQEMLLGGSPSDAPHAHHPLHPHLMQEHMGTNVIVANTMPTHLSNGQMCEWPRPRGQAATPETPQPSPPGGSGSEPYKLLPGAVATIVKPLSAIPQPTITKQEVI
* marks the source's active call; other numbers are inactive results; i = inactive; ? = inconclusive; nt = no result given; & = joins results of further samples.

SMILES	AF4-AF9 inh	Vif TR-FRET	Ecoli growth	RanGTP-Impb inh	FGF22 binding	UCH37 inh	HNF4A DNA FP
CCOC(=O)C1(CC2CCCCO2)CCN(S(=O)(=O)c2cccc(F)c2)CC1 (stereo not given)	-2.3	nt	0.66	-3.1	i	2.9	-3.1
COc1ccc(C(N)c2csc(Nc3ccc(C(=O)NCCCO)cn3)n2)cc1 (stereo not given)	1.2	nt	nt	nt	i	nt	-0.2
CC(C)(CO)NC(=O)C12CC3CC(CC(Br)(C3)C1)C2	-0.9	-0.4%	0.614	-2.1	i	0.5	-0.3
COc1cccc(NC(=O)CCS(=O)(=O)c2ccc(Br)cc2)c1	-5.0	-1.7%	0.645	4.8	i	6.1	-0.7
Cc1ccccc1NC(=O)C(=O)NCC1CCCN1S(=O)(=O)c1cccs1 (stereo not given)	-0.5	-6.2%	0.622	-2.1	i	-2.7	0.6
Cc1ccc2c(c1)cc(CN(Cc1ccc3c(c1)OCO3)S(=O)(=O)c1ccccc1)c1nnnn12	nt	1.7%	0.766	0.4	nt	-1.0	4.1
CCCOc1ccc(F)cc1-c1cc(C(=O)NCc2cccs2)[nH]n1	-1.8	nt	nt	nt	i	nt	1.0
O=C(O)C(Cc1c[nH]c2ccccc12)NS(=O)(=O)c1ccc(Br)cc1 (stereo not given)	-1.6	3.3%	0.692	-0.2	i	-2.0	-1.8
CC(C)C1N(C(=O)N2CCOCC2)CCN1S(=O)(=O)c1ccccc1 (stereo not given)	0.4	nt	0.684	-0.4	i	1.6	-1.6
Cc1ccc(S(=O)(=O)NCc2ccccc2Br)cc1	0.5	nt	nt	nt	i	nt	1.9
CCOC(=O)N/C(N)=N/c1nc2ccccc2s1	nt	2.6%	0.679	2.4	nt	5.0	0.8
CC(=O)Nc1ccc(-c2ccccc2)s1	nt	26.4%	nt	0.6	nt	-0.2	-0.8
CCOc1ncccc1C(=O)OCC(=O)c1ccc(F)cc1	-0.2	-2.3%	0.674	-1.6	nt	-0.1	1.1
CC1=CN(S(=O)(=O)c2ccc(C)cc2)C[C@@H]2[C@H]3CC[C@H](C3)[C@H]12	0.1	-3.4%	0.7	nt	i	1.0	-5.7
C=CCNC(=O)c1ccc(CN(c2ccc(OCC)cc2)S(=O)(=O)c2ccc(C)cc2)cc1	4.0	nt	0.706	-9.2	i	3.4	-2.0
NS(=O)(=O)c1ccc(CCNc2nn3c(-c4cccc(OC(F)(F)F)c4)cnc3s2)cc1	-2.9	nt	nt	nt	i	nt	2.6
COc1ccc(NC(=O)c2ccc(NC(=O)CN(C)CC(=O)Nc3c(C)cccc3C)cc2)cc1	1.0	nt	0.658	-2.1	i	4.5	1.2
O=C(c1ccc2c(c1)OCCO2)C1CCN(S(=O)(=O)c2cccc(F)c2)CC1	nt	-5.6%	0.663	3.8	nt	1.5	3.2
CCOC(=O)N1CCN(C(=O)CCCn2c(=O)[nH]c3ccccc3c2=O)CC1	nt	7.4%	0.712	-1.6	nt	-1.8	-3.2
CCNCc1cc(Br)c(OCC(=O)Nc2ccccc2)c(OC)c1	nt	3.9%	0.697	2.1	nt	2.7	0.3
CCCC(=O)Nc1ccccc1NC(=O)CN(C)S(=O)(=O)c1ccccc1	nt	2.7%	0.789	6.4	nt	-1.2	-1.4
Cc1ccc(-c2csc3nc(C)n(-n4cccc4)c(=O)c23)o1	nt	-2.5%	0.715	-2.1	nt	-4.0	-1.5
CC(=O)N1CCN(CC(=O)Nc2ccc(SC(F)F)cc2)CC1	nt	0.8%	0.667	-4.9	nt	-1.0	3.5
Cc1nc(C(F)(F)F)ccc1C(=O)N1CCC(C)(C(=O)NS(=O)(=O)C2CC2)C1 (stereo not given)	2.3	nt	nt	nt	i	nt	5.6
CCCCn1c(C)nc2cc(S(=O)(=O)N3CCOCC3)ccc21	0.9	5.4%	0.706	nt	i	-0.3	-2.2
CCCOc1ccc(N2C(=O)CC(N3CCOCC3)C2=O)cc1 (stereo not given)	nt	0.4%	0.678	0.0	nt	2.6	2.8
CN(Cc1ccc(F)cc1)C(=O)c1cc(COc2ccc(-n3cncn3)cc2)on1	-1.2	nt	0.715	0.5	i	2.0	0.0
C=CCN(C(=O)CCc1ccccc1OC)c1nc(-c2ccc(S(C)(=O)=O)cc2)cs1	-1.3	nt	nt	4.2	i	nt	3.2
CC(=O)C1=C(O)C(=O)N(c2ccc(Br)cc2)C1c1ccc([N+](=O)[O-])cc1 (stereo not given)	-1.8	6.5%	nt	-2.6	i	nt	0.4
O=C(Cc1ccccc1)Nc1ccc(C(=O)NCc2ccccc2)cc1	-6.2	nt	0.674	7.8	i	0.8	1.3
Cc1cccc(NC(=O)Nc2c(C)n(C)n(-c3ccccc3)c2=O)c1	-1.3	-3.0%	0.689	2.1	i	2.9	-1.5
COC(=O)CC1C(=O)NC2CCCCC2N1C(=O)c1ccccc1 (stereo not given)	nt	6.1%	0.711	2.8	nt	-0.7	1.3
CCn1c(=O)cc(SCC(=O)NCc2ccc(C)o2)c2ccccc21	nt	71.4%	0.731	-4.6	nt	-0.2	2.0
COc1cccc2c(=O)c(C(=O)NCc3cccs3)c[nH]c12	nt	-12.5%	0.67	-1.6	nt	-66.1	2.8
Cc1cc(C)c(NC(=S)N(CCCN2CCOCC2)Cc2cccnc2)c(C)c1	-4.9	nt	0.69	-0.8	nt	-0.9	0.3
O=C(CC1Sc2ncnn2C1=O)Nc1ccccc1 (stereo not given)	-55.1	5.2%	0.717	2.6	i	3.3	0.5
COc1cccc(OC)c1C(=O)Nc1nnc(C(C)C)s1	nt	5.9%	0.697	?	nt	1.7	-0.5
Cc1cccc(C2=NN(c3ccccc3)[C@@H](C(=O)N3CCOC3=O)[C@@H]2c2ccc(F)cc2)c1	-4.2	5.1%	0.726	nt	i	-146.3	2.3
CCOC(=O)N1CCN(C(=O)CN(c2ccc(OC)cc2)S(C)(=O)=O)CC1	nt	-0.6%	0.727	2.1	nt	-1.7	-1.8
CCOC(=O)C1=C(N)OC2=C(C(=O)CC(C)(C)C2)C1c1ccc(CC)s1 (stereo not given)	1.1	-5.2%	0.681	?	i	2.7	-3.6
CC(=O)c1c(C)[nH]c(C(=O)COC(=O)c2cccc(S(=O)(=O)N(C)c3ccccc3)c2)c1C	nt	-12.0%	0.723	2.3	nt	6.3	4.6
C[C@@H]1CN([C@@H](C)CO)C(=O)c2cc(NS(=O)(=O)c3cccs3)ccc2O[C@H]1CN(C)Cc1ccc(C(F)(F)F)cc1	1.7&4.2	nt	nt	nt	i	1.7	2.4
C=CCC1c2cccc(C(=O)OC)c2C(=O)N1c1ccccc1 (stereo not given)	nt	-8.7%	0.687	-1.0	nt	0.4	-0.8
COc1cccc(-c2cc(C(=O)NCc3cccs3)no2)c1	-0.2	-7.8%	0.665	0.5	i	4.2	-5.3
Cc1ccccc1C(=O)Oc1ccc(Sc2ccc(O)cc2)cc1	3.1	4.8%	0.65	2.6	nt	8.9	nt
CCc1ccc2c(CN(CC)Cc3nc4ccccc4c(=O)[nH]3)cc(=O)oc2c1	nt	8.9%	0.709	3.5	nt	-2.3	4.4
Cc1nc(CNC(=O)c2cc(COc3ccc(F)cc3Cl)on2)cs1	-1.4	24.3%	0.7	-5.3	i	1.7	2.8
Cc1ccc(N2C(=O)c3ccccc3C2=O)cc1C	-4.8	-10.8%	0.763	0.5	nt	1.5	-1.2
Cc1ccc(/C=C/C(=O)Nc2cccc3cccnc23)o1	nt	?	0.697	-3.3	nt	1.7	-19.1
Nc1cc(Nc2ccccc2)c2nonc2c1[N+](=O)[O-]	-1.0	0.2%	0.637	-10.6	i	2.5	-1.2

Three compounds out of the list, arranged by count of non-hydrogen atoms, lowest first.
SMILES	AF4-AF9 inh	Vif TR-FRET	Ecoli growth	RanGTP-Impb inh	FGF22 binding	UCH37 inh	HNF4A DNA FP
Nc1cc(Nc2ccccc2)c2nonc2c1[N+](=O)[O-]	-1.0	0.2%	0.637	-10.6	i	2.5	-1.2
Cc1ccccc1C(=O)Oc1ccc(Sc2ccc(O)cc2)cc1	3.1	4.8%	0.65	2.6	nt	8.9	nt
Cc1nc(CNC(=O)c2cc(COc3ccc(F)cc3Cl)on2)cs1	-1.4	24.3%	0.7	-5.3	i	1.7	2.8

Carrying on:
SMILES	AF4-AF9 inh	Vif TR-FRET	Ecoli growth	RanGTP-Impb inh	FGF22 binding	UCH37 inh	HNF4A DNA FP
CCNC(=S)N(CCc1c(C)[nH]c2ccc(Cl)cc12)Cc1cccnc1	7.7	3.6%	0.671	-0.7	i	3.9	-3.6
COC(=O)[C@H](CCSC)NC(=O)Cn1ccc(NC(=O)OCc2ccccc2)nc1=O	-0.3	nt	nt	nt	i	1.9	2.3
COC(=O)c1cccc(NC(=S)NC(C)C)c1	-2.6	-1.3%	0.622	-1.4	i	-0.6	0.4
O=C1COc2ccc3ccccc3c21	-1.8	-1.3%	0.627	3.7	i	-37.8	1.1
COc1ccc(S(=O)(=O)NCC2CCCN(C(=O)c3cccnc3C)C2)cc1 (stereo not given)	-2.1	-3.4%	0.628	2.9	i	-2.0	-2.2
COc1cc(F)c(C(=O)NC(C)(C)CO)cc1OC	-9.9	nt	0.679	-0.8	i	3.3	3.4
CC(C)n1c(N2CCN(C(=O)NCc3ccccc3)CC2)nc2ccccc21	nt	17.3%	0.726	7.2	nt	5.9	-2.4
C=C(C)CNC(=O)c1ccc(OC2CCN(S(=O)(=O)N(C)C)CC2)cc1	-2.1	-0.3%	0.661	6.1	i	-0.6	-1.4
CSc1ncccc1C(=O)Nc1ccc2c(c1)OCO2	1.2	0.6%	0.67	nt	i	3.8	0.2
Cc1cccn2c(CNCC(C)Oc3cccnc3)c(C(=O)N3CCOCC3)nc12 (stereo not given)	1.9	-0.7%	0.696	-0.5	i	-1.2	4.0
COC(=O)c1c(NC(=O)CN(c2ccc(C)c(C)c2)S(C)(=O)=O)sc2c1CCCC2	nt	nt	0.685	4.0	nt	5.4	-0.4
CC(=O)N(C)c1nc(N)n(-c2ccccc2)n1	-3.6	12.2%	0.737	3.1	nt	2.1	-1.2
CN(C(=O)COC(=O)c1ccc([N+](=O)[O-])cc1Cl)C1CCCCC1	9.0	2.3%	0.683	-0.5	i	2.2	3.3
O=C(OCc1c(-c2ccccc2)ncc2ccccc12)c1ccccc1C(F)(F)F	-1.8	nt	0.71	nt	i	-1.1	-0.1
O=C(c1ccco1)N1CCN(S(=O)(=O)c2ccc(S(=O)(=O)NC3CCCC3)cc2)CC1	-31.6	20.8%&2.5%	0.692	-2.2	i	3.8	-0.1
CCOc1cc(C2C(C#N)=C(N)Oc3n[nH]c(-c4ccccc4)c32)ccc1O (stereo not given)	nt	0.5%	0.693	?	nt	5.3	3.2
CC(C)=Cc1oc2ccc([N+](=O)[O-])cc2c1N1CCOCC1	1.2	3.8%	0.711	-1.4	i	2.2	1.8
Cc1ccc(NC(=O)C2(c3ccccc3)CCOCC2)cc1	-8.9	nt	0.719	5.2	i	2.6	-4.3
C=CCn1c(C)nnc1SCC(=O)NC1CCCCC1	-1.1	1.5%	0.695	6.8	i	0.4	2.9
COc1ccc(CCNC(=O)COc2ccc(S(=O)(=O)NC3CCCCC3)cc2Cl)cc1OC	0.7	nt	0.662	-2.0	i	1.8	-0.8
CCOC(=O)C1=C(CS(=O)(=O)c2ccccc2)NC(=O)NC1c1ccccc1 (stereo not given)	nt	26.5%	0.724	-1.0	nt	3.2	5.0

An excerpt (hit frequency here may not be typical).
